MgrA DNA FP: S. aureus MgrA activity modulators, primary screen, biochemical, S. aureus Newman, fluorescence polarization. MgrA-DNA binding. inhibition, %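 (about 10 µg/mL by stock and volumes)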. 84,000 tested, 0.13% active. AID 602314, 2012;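 active = above 50% in either of two replicates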;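 note: 0% = protein plus DNA without compound and 100% = DNA alone without protein; higher means less MgrA bound to DNA so lower polarization; one replicate is shown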
S aureus helic: inhibitors of S. aureus replicative helicase, primary screen, biochemical, fluorescence unwinding readout; replicative DNA helicase (DnaC/DnaB), Staphylococcus aureus; purified S. aureus helicase, fluorescence unwinding assay; about half of the hits fall short of the stated cut; inhibition, %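 (tested at about 80 µM)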; 120,000 tested, 0.05% active; AID 485395, 2010;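 active = both duplicates at 50% or more, or one of them with a favoured structure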;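 note: 0% = mean of negative control wells and 100% = mean of positive control wells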
Starred values were filed as active, the others as inactive; x = not tested or not shown.

compound | MgrA DNA FP | S aureus helic
CN(C)/N=C/c1ccc(/C=N/N(C)C)o1 | x | -1
COc1ccc(CCNc2nnc(-c3ccccc3)c(=O)[nH]2)cc1OC | x | 9
CC(=O)Nc1ccc(S(=O)(=O)N2CCCOC2)cc1 | x | 0
Cc1ccc(CSCC(=O)N2CCN(Cc3ccc4c(c3)OCO4)CC2)cc1 | 4.8 | 18
COc1ccc(-c2nc(SCC(=O)NCc3ccccc3)c3c(=O)n(C)c(=O)n(C)c3n2)cc1 | x | 6
N/C(COc1ccc(Cl)cc1)=N/OC(=O)c1ccsc1 | -0.4 | x
Cc1ccc(Cl)cc1NC(=O)c1ccc(Br)o1 | 0.0 | 1
COc1cc2c(cc1OC)[C@@H](Cc1ccc(O)cc1)N(C)CC2 | -1.0 | 12
CCc1cccc2c(C#N)cn(CC(=O)NCCOC)c12 | 0.8 | -4
O=C(Cc1ccccc1)NC1CCN(C(=O)C2CCCCC2)CC1 | x | -5
O=C(O)CCn1c(SCc2cccc3ccccc23)nc2ccccc21 | 0.3 | x
c1ccc(CCN2CN=C(Nc3nc4ccccc4o3)NC2)cc1 | x | -29
CCOC(=O)CC1=C(C(=O)OCC)C(c2ccccc2F)C(C#N)=C(N)O1 (stereo not drawn) | 1.4 | x
CCCN(CCC)C(=O)Cn1c(=O)n(CCC(=O)NCc2ccco2)c(=O)c2sccc21 | x | -31
CC(C)(C)C(=O)NC(Cc1c[nH]c2ccccc12)C(=O)O (stereo not drawn) | 19 | -3

Whole records, quoted from the list. Values in the order: MgrA DNA FP | S aureus helic
c1ccc(CCN2CN=C(Nc3nc4ccccc4o3)NC2)cc1 in the list: x | -29
O=C(O)CCn1c(SCc2cccc3ccccc23)nc2ccccc21 in the list: 0.3 | x

Later entries:
compound | MgrA DNA FP | S aureus helic
O=C(CSc1nc2ccccc2[nH]1)C1CC1 | -2.0 | 6
CCOC(=O)C1=C(c2ccccc2)OC(N)=C(C#N)C1c1ccc(F)cc1 (stereo not drawn) | -0.4 | 12
C=CCSc1nnc2c(n1)OC=Nc1ccccc1-2 | x | 5
CCn1c(=O)cc(O)c2ccccc21 | -2.3 | x
O=C1CCCc2cc(S(=O)(=O)N3CCC(C(=O)N4CCOCC4)CC3)ccc2N1 | x | 21
O=C(O)CN1N=C(c2ccc(Cl)cc2)CCC1=O | -5.3 | 6
CC(C(=O)NC(=O)NC1CCCCC1)N1CCN(S(=O)(=O)c2cc(Br)ccc2Br)CC1 (stereo not drawn) | x | -11
CC(=O)Nc1cc2ccccc2cc1C(=O)O | x | 5
CCOc1ccc(C(=O)Nc2cccc(-c3ccc(N4CCOCC4)nn3)c2)cc1OCC | x | 2
O=C(OCc1csc(Nc2ccccc2)n1)c1cc(NS(=O)(=O)c2cccs2)ccc1O | x | 1
Cn1ncc(C(=O)O/N=C/c2ccc(Cl)cc2Cl)c1-n1cccc1 | 1.6 | x
CCn1c(=O)n(CC)c2cc(S(=O)(=O)NC(C)C)ccc21 | -1.1 | 3
COc1ccc(C(=O)NCC(=O)N2CCc3ccccc3C2)cc1 | x | -7
C/C=C/CC(=O)Nc1nc(CC(=O)OCC)cs1 | -0.7 | x
O=C(Cn1cnc2c(oc3ccccc32)c1=O)N1CCCSC1=Nc1ccccc1Cl | x | -4
NNc1ncc(Cl)cc1Cl | 2.8 | -6
CC(C1CC1)N(CC(F)(F)F)C(=O)c1cnc2ccccc2n1 (stereo not drawn) | x | 9
Cc1nn(CO)c(C)c1Sc1ccc(Cl)cc1 | x | 13
CCc1cc(-c2[nH]ncc2-c2cscn2)c(O)cc1O | x | 1
CCOC(=O)Nc1nc2c(ccc3ccccc32)s1 | x | 10
CCOC(=O)/C(C#N)=C\c1ccc(N(C)C)cc1 | 5.5 | -19
Cc1cc(C)nc(NS(=O)(=O)c2ccc(NC(=O)c3cccc(Br)c3)cc2)n1 | 5.4 | x
COc1ccccc1C(C)NC(=O)c1cccc(OC(F)F)c1 (stereo not drawn) | x | 14
CN(C)C(CN=C1NS(=O)(=O)c2ccccc21)c1ccccc1 (stereo not drawn) | x | -7
CCc1nc(-n2nnc3cc(C)c(C)cc32)c2c3c(sc2n1)CCCC3 | 1.3 | 11
Cc1ccc(S(=O)(=O)N2CCN(Cc3cc(=O)n4ccccc4n3)CC2)c(C)c1 | x | -12
Cc1cc(C)nc(N2CCN(c3ccccn3)CC2)n1 | x | -9
Cn1ccnc1C(=O)c1cccnc1 | 2.7 | -16
COC(=O)c1sc(C(C)(C)C)cc1CS(=O)(=O)c1cc(C)c(Cl)cc1C | -3.5 | x
COc1cccc(C(=O)Nc2cnn(CCCC(=O)O)c2)c1 | -2.5 | 7
O=C(O)C1CC(=O)N(Cc2ccc(Cl)cc2)C1 (stereo not drawn) | -1.3 | x
CCSc1cccc2cccnc12 | 4.7 | 14
CN(Cc1ccc(-c2ccc(Br)cc2)o1)C(=O)c1cccs1 | x | 24
CC1(C(=O)Nc2ccc(NC(=O)C3(C)CCCC3)cc2)CCCC1 | -0.4 | -28
CCOC(=O)c1c(Cl)c(C(C)(C)C)[nH]c(=O)c1C#N | 2.4 | x
Cc1cc(C)c2c(C)c(C(=O)NN)sc2n1 | 2.1 | x
O=C(NCc1cccc(Cl)c1)c1ccc(CS(=O)Cc2ccc(Cl)cc2)o1 (stereo not drawn) | x | 20
COc1ccc2c(c1)C(=O)N(c1ccc(C)cc1C)C(=O)/C2=C/N1CCOCC1 | x | 2
CC(=O)N(CCc1ccccc1)CC1C(Oc2ccc(Cl)cc2)C(=O)N1c1ccccc1C (stereo not drawn) | 0.8 | 7
Cc1ccnc2nc(NC(=O)c3cccnc3)nn12 | x | 15
O=C(Oc1ccc(N2C(=O)C3C4C=CC(C4)C3C2=O)cc1)c1ccc([N+](=O)[O-])cc1 (stereo not drawn) | 2.0 | x
CC(CC(=O)OCc1ncc(-c2ccccc2)o1)c1ccccc1 (stereo not drawn) | x | -11
O=C(Nc1cccc(C(F)(F)F)c1)C1CCC(Cn2c(=O)[nH]c3ccsc3c2=O)CC1 (stereo not drawn) | 12 | 10
NC(=S)N/N=C/c1cccc(C(F)(F)F)c1 | x | 18
COC(=O)c1ccccc1NC(=O)Cc1c(C(=O)O)[nH]c2ccccc12 | x | 9

Next section (2 carried over from the part before).
compound | MgrA DNA FP | S aureus helic
NC(=S)N/N=C/c1cccc(C(F)(F)F)c1 | x | 18
COC(=O)c1ccccc1NC(=O)Cc1c(C(=O)O)[nH]c2ccccc12 | x | 9
O=C(Nc1cccc(-c2nnco2)c1)c1cccs1 | -2.4 | x
C/C(CC(C)C)=N\Nc1ccc(Cl)c(C(=O)O)c1 | x | 1
Cn1c(=O)c2ccccc2n2c(=S)sc(-c3ccccc3)c12 | 1.5 | 6
Cc1nc(C(F)(F)F)ccc1-c1nnc(SCc2cc(F)cc(F)c2)o1 | -0.6 | x
CC1=NCCNC(C)=C1N1CCOCC1 | -1.2 | x
CCOC(=O)c1cnn2c1[nH]c(=O)c1ccccc12 | -0.9 | x
Nc1ccccc1OCCOc1ccccc1N | -2.8 | -13
O=C(Oc1ccc2ccccc2c1)c1ccccc1 | x | 25
CC(=O)N(CCN(C)C)c1nc2cc3c(cc2s1)OCO3 | x | 0
CC(C)C(=O)NCc1ccc(Cl)cc1Cl | 3.0 | x
CCC(=O)N(CCC1(c2ccccc2)CCOC(C)(C)C1)Cc1ccccc1F (stereo not drawn) | -1.8 | 1
O=c1[nH]c2ccccc2nc1-c1c[nH]c2ccccc12 | -1.5 | x
O=C(CNc1cc(Cl)ccc1Cl)N1CCCC1 | -4.3 | -3
CCCCOc1ccc(CN(C)C)cc1CN(C)C | x | 14
CC(=NC1CCCCC1)c1sc2ccccc2c1O | -2.7 | 2
NS(=O)(=O)c1ccc(NC(=O)CN2C(=O)SC(=C3CCCCC3)C2=O)cc1 | x | 19
O=c1cc(O)c2sc3nc(-c4ccco4)cc(C(F)(F)F)c3c2[nH]1 | 88* | 18
CC(C)(C)C(=O)Nc1ccc(-c2csnn2)cc1 | 2.6 | x
Cc1ccccc1-c1nc(CN2CCC(C(=O)NC3CCCCC3)CC2)c(C)o1 | x | 1
CSC(=S)n1c(C)nc2ccccc21 | -0.7 | -12
Cn1c(=NC(=O)CSc2nnc(-c3ccccc3)o2)sc2ccccc21 | x | -17
Cc1ccc(C(C(=O)NC2CCCC2)N(C(=O)Cn2nnc3ccccc32)c2cnc3ccccc3c2)o1 (stereo not drawn) | 5.0 | 1
COC(=O)c1nsc(Cl)c1Cl | -3.5 | -2
C/C(=C/C(=O)O)C(=O)Nc1nc(-c2cccs2)cs1 | x | 9
CN(C)c1ccc(/C=N/OC(=O)NC2CCCCC2)cc1 | x | 19
S=C1NCN(C2CC2)CN1 | -1.0 | x
Cc1nnc2c3cc(-c4ccccc4)sc3ncn12 | x | 13
CCN1CCc2c(sc(N)c2C#N)C1 | 12 | -12
COc1cc(C(=O)N[C@H](C(=O)O)C(C)C)cc(OC)c1OC | x | -4
O=C(CCN1CCCC1)Nc1nc(-c2ccc(Cl)cc2)cs1 | -3.2 | x
O=S(=O)(c1ccc(Cl)cc1)n1cc2c(n1)CCOC2 | -1.7 | x
O=c1c(CCc2ccccc2)nnc2c3ccccc3ncn12 | x | -11
CN1/C(=C\C=Nc2ccccc2N)C(C)(C)c2ccccc21 | x | -52
CC1(C)Cc2ccccc2/C(=C/C(=O)N2CCOCC2)N1 | -0.9 | -9
O=c1nc(-c2cccs2)n(-c2ccccc2)[nH]1 | -2.4 | x
COc1cc(-c2nc(-c3ccsc3)c(-c3ccccc3)[nH]2)cc(OC)c1OC | x | 2
O=C(Nc1ccccc1C(=O)OC1CCCCC1=O)c1ccco1 (stereo not drawn) | x | 6
Cc1ccc2c(c1)CCCN2CC(=O)N(c1ccccc1)C1CCCCC1 | 4.2 | x
FC(F)(F)c1cccnc1SCc1ccc(Cl)cc1 | -0.2 | x
C=CCn1c(CCCNC(=O)c2cccs2)nc2ccccc21 | x | 11
CC1CCC2(CC1)NC(=O)N(CN(C)Cc1cccs1)C2=O (stereo not drawn) | x | 9
COCc1c(C(=O)NCc2cccs2)oc2ccccc12 | x | -6
O=C(CN1CCN(c2cccc(Cl)c2)CC1)Nc1nccs1 | -2.7 | 7
COc1cc(C2N(Cc3ccccc3)CCCN2Cc2ccccc2)ccc1O | -2.7 | 12
N#Cc1c(N)oc(-c2cccs2)c1-c1cccs1 | x | 5

Entries shown so far that contain bromine, in the order listed:
compound | MgrA DNA FP | S aureus helic
Cc1ccc(Cl)cc1NC(=O)c1ccc(Br)o1 | 0.0 | 1
CC(C(=O)NC(=O)NC1CCCCC1)N1CCN(S(=O)(=O)c2cc(Br)ccc2Br)CC1 (stereo not drawn) | x | -11
Cc1cc(C)nc(NS(=O)(=O)c2ccc(NC(=O)c3cccc(Br)c3)cc2)n1 | 5.4 | x
CN(Cc1ccc(-c2ccc(Br)cc2)o1)C(=O)c1cccs1 | x | 24

Other records.
compound | MgrA DNA FP | S aureus helic
CS(=O)(=O)c1ncc(Cl)c(C(=O)NCc2ccccc2)n1 | x | -5
COc1cccc(/C=C/C(=O)OCC(=O)NC2CCCCC2)c1 | 2.7 | -22
O=S(=O)(c1ccc(F)c(F)c1)N(c1ccc2c(c1)OCO2)S(=O)(=O)c1ccc(F)c(F)c1 | x | 3
CCOC(=O)Cc1nc(-c2ccc(Cl)cc2)cs1 | x | -9
Cc1onc(-c2ccccc2)c1C(=O)Nc1cccc(C(F)(F)F)c1 | x | -4
Cc1c(S(=O)(=O)c2ccc(Cl)cc2)csc1C(=O)O | 2.2 | x
COC(=O)c1snc(-c2c(Cl)cccc2Cl)c1C(=O)OC | -1.1 | x
Cc1sc2nc(SCc3ccc(C(=O)NCCO)cc3)nc(N)c2c1C | x | -8
CCC1OC(=O)[C@H](C)C(=O)[C@H](C)[C@@H](OC2O[C@H](C)C[C@H](N(C)C)[C@H]2O)[C@](C)(OC)C[C@@H](C)C(=O)[C@H](C)[C@H]2N(CCCCn3cnc(-c4cccnc4)c3)C(=O)OC12C (stereo partly drawn) | 3.8 | x
CC(C)(C)OC(=O)Nc1ccc(-c2ccn[nH]2)cc1 | x | 13
CCOC(=O)c1ccc(NS(=O)(=O)c2ccc(Cl)cc2)cc1 | 0.5 | x
Cc1[nH]n(-c2ccccc2)c(=O)c1C=Nc1ccc(O)cc1 | 2.7 | 8
COc1ccc(-c2csc(Nc3ccccc3)[n+]2C)cc1 | x | 19
Cc1nc(C(F)(F)F)ccc1NC(=O)NCCNc1cccc(C(F)(F)F)n1 | 1.4 | x
CCC(SC1=NCCS1)C(=O)Nc1ccc(NC(C)=O)cc1 (stereo not drawn) | 5.0 | 12
O=C(O)CN(CCc1ccccc1)CC(=O)O | 1.9 | 7
CC1CCc2c(sc3ncn4c(=S)[nH]nc4c23)C1 (stereo not drawn) | x | -25
CC(C)OC(=O)c1ccc(COC(=O)CNC(=O)c2ccco2)cc1 | 4.0 | 4
O=C1CCC(=O)N1c1ccc(-c2nc3scc(-c4cccs4)c3c(=O)o2)cc1 | -0.1 | x
COc1cccc2c1oc(=O)c1c(NC(C)=O)nc3c(c12)CCCC3 | x | 0
O=C(COc1nnc(SCCS(=O)(=O)c2ccc(F)cc2)n1C1CC1)c1ccc(F)cc1 | -1.4 | x
COc1ccc(N2C(=O)c3ccccc3NC23CCCC3)cc1 | x | -6
CCCn1c2ccc(C)cc2c2nnc(SCCN(CC)CC)nc21 | -1.9 | 22
CC1CN(C(=O)C(C)N(C)Cc2nc3ccccc3c(=O)[nH]2)CC(C)O1 (stereo not drawn) | x | -20
O=C1N=c2ccc(Br)cc2=C1c1sc(NS(=O)(=O)c2ccccc2)nc1O | 36 | x

Looked up above.
O=C1N=c2ccc(Br)cc2=C1c1sc(NS(=O)(=O)c2ccccc2)nc1O @ MgrA DNA FP = 36
O=C(COc1nnc(SCCS(=O)(=O)c2ccc(F)cc2)n1C1CC1)c1ccc(F)cc1 @ MgrA DNA FP = -1.4

High-throughput results deposited in PubChem by ICCB-Longwood Screening Facility, Harvard Medical School.

This is a subset; the hit share may differ from the screen's.
